High-throughput results from PubChem BioAssay.
NPYLR7 agonist – agonists of mosquito NPYLR7 receptor, primary screen, cell-based, Aedes aegypti, calcium fluorescence, mosquito biting behavior. HEK293T NPYLR7/Galpha15, GCaMP6s calcium fluorescence. activation, % at 10 µM. 0.15% of 270,000 active. Aedes aegypti neuropeptide Y-like receptor 7 (NPYLR7); in the data active means activation above about 40%;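 further: 0% = vehicle and 100% = reference agonist at the receptor; some compounds past the cut are filed as inactive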
NPYLR7 agonist max-min – recorded beside NPYLR7 agonist, whose call it bears; activation, %; measured here: Max-Min RFU normalised activation; some inactives read as strong as hits;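 span of the calcium signal over five minutes; 0% = vehicle and 100% = native peptide agonist; compound fluorescence can raise it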
Active calls of the source: *; & = joins results of further samples.

SMILES | NPYLR7 agonist | NPYLR7 agonist max-min
O=C(C1CCOCC1)N1CCC(CO)(Cc2ccccc2Cl)CC1 | 7 | 12
O=C(CN(c1cccc([N+](=O)[O-])c1)S(=O)(=O)c1ccccc1)NCCSc1ccccn1 | -17 | -9
Cc1cn(C2OC(COC(=O)c3ccccc3)C(O)C2O)c(=O)[nH]c1=O (stereo unspecified) | -4 | -7
CC(C)(C)NC(=O)CC12CC3CC(C1)CC(CC(=O)NC(C)(C)C)(C3)C2 | -4 | -7
CCN(CC)S(=O)(=O)c1ccc2c(c1)nc(SCc1cc(OC)c(OC)cc1F)n2Cc1ccco1 | -3 | -7
CSc1ncc(CN2CCC(CCC(=O)Nc3ccc4c(c3)OCCO4)CC2)cn1 | 14 | 4
O=C(O)c1cc(-c2ccc(O)cc2)nc2nc(-c3ccccc3)[nH]c12 | -1 | -2
O=S(=O)(Nc1ccc(-n2cnnn2)cc1)C1CCCCC1O (stereo unspecified) | -6 | -8
CC(=O)Nc1ccc(C2=NOC(C)(C)C(=O)N2Cc2c(C)noc2C)cc1 | -1 | -1
Cc1cc(=O)n2nc(N3CCCC(C(=O)NC(C)C)C3)sc2n1 (stereo unspecified) | 7 | 6
NC(=O)C(F)(F)S(=O)(=O)OCC(F)(F)C(F)F | 9 | 6
CCCCN(C)c1c(CC)nc2ccc(C(=O)NC3CCN(C)CC3)cn12 | 0 | -15
O=C(O)COCCN1CCN(C(c2ccccc2)c2ccc(Cl)cc2)CC1 (stereo unspecified) | 7&-1&2&-3 | 7&-8&-12&-8
O=C1Nc2ccc([N+](=O)[O-])cc2C1=Nn1cnnc1 | 3 | 0
CN(C(=O)CCc1ccc(S(=O)(=O)N2CCCCC2)cc1)c1ccccc1 | 0 | 5
COc1ccc(CC(=O)NN=C2CC(=O)CC(C)(C)C2)cc1 | 2 | 4
Cc1cc(CN2CCCC2)cc(Oc2nc(C)cnc2C)c1 | 9 | -9
O=C(O)c1ccc(NC(=O)[C@H](Cc2ccc(O)cc2)NC(=O)c2ccccc2)cc1 | -3 | -5
COc1ccc(-c2csc(=Nc3cccc(C(C)=O)c3)n2NC(=O)CNc2ncc(C(F)(F)F)cc2Cl)cc1 | 1 | -4
Cc1ccc(-c2noc(Cn3c(=O)cnc4ccccc43)n2)cc1 | -3 | -4
Cc1cc(NC(=O)C2=C(O)c3ccccc3S(=O)(=O)N2C)no1 | -9&-2 | -12&-6
CCc1cccc2c(C(CC(=O)O)c3cccc4c3OCO4)c[nH]c12 (stereo unspecified) | 1 | 14
CCc1ccc(C(=O)Nc2ccc(F)cn2)cc1S(=O)(=O)N1CCOCC1 | -2 | -8
Cc1cccnc1CN1CCN(CC(C)(C)CN2CCOCC2)CC1 | -4 | -5
Cc1cccc(CN2CCCC(O)(CN3CCCC3)C2=O)c1 (stereo unspecified) | 2 | 0
SMILES | NPYLR7 agonist | NPYLR7 agonist max-min
COC(=O)CC(=O)N1CCC(Cc2ccc(C(F)(F)F)cc2)CC1 | 5 | -7
CCCC(=O)OCC(O)CN(Cc1ccc(F)cc1)Cc1cccc(OC)c1 (stereo unspecified) | 18 | 12
CNC(=O)[C@@H]1C[C@H]2CN(CCOC)C(=O)c3cccc(c32)N1C(=O)C(C)C | 5 | 13
Cc1ccc(Br)cc1NCN1C(=O)c2ccccc2C1=O | 2 | 0
CC(C)c1cc(=O)n2c(n1)SCC2CC(=O)Nc1ccccc1-c1ccccc1 (stereo unspecified) | -1 | -2
Cc1occc1-c1nnc(SCC(=O)NCCc2ccccc2F)n1C | 5 | -3
O=C(c1c(Cl)cc(Cl)cc1Cl)N1CCC(c2nc(-c3ccccc3F)no2)CC1 | 5 | -1
CN1CC2(CCCN(Cc3nc4ccccc4s3)C2)OC1=O (stereo unspecified) | 3 | 1
COC(=O)CCCC(=O)n1ccn(-c2ccccc2C)c1=O | 10 | 0
Cc1c(C)n2c3c(=O)n(CCN4CCCCC4)c(=O)n(C)c3nc2n1C1CCCCC1 | 4 | -3
CCOc1ccc(S(=O)(=O)Nc2c(C)ccc(Cl)c2C(=O)O)cc1 | 6 | 7
COC(=O)c1c(C)c(C(=O)C(C)N(Cc2ccc(F)cc2)C(=O)COc2ccc(Cl)cc2)c(C)n1C (stereo unspecified) | -10 | -8
Cc1ccc2cc(CN3CCC(O)(CO)CC3)c(=O)[nH]c2c1 | 2 | 1
CCOc1ccc(-n2cc(-c3ccccc3)c3c(NCC(OC)OC)ncnc32)cc1 | 3 | 3
CN(Cc1ccccc1)C(=O)C1(C)CCN1C(=O)Cc1ccccc1 (stereo unspecified) | 7 | 6
Cc1ccc(C(=O)NCCc2nnc3ccc(NCc4ccc5c(c4)OCO5)nn23)cc1 | -3 | -8
CCOC(=O)C1(C)CCN1C(=O)c1cc(OC)ccc1Br (stereo unspecified) | -2 | -6
O=C(c1ccc(CSc2nc3cccc(Cl)c3o2)cc1)N1C2CCC1CC(Oc1cccc(C(F)(F)F)c1)C2 (stereo unspecified) | -1 | -6
N#C/C(=C\Nc1cccc(Cl)c1)C(=O)NC(=O)c1ccccc1 | 10 | 13
O=C(C1CCOC1)N1CCc2c(sc3[nH]c(=O)n(Cc4ccccc4)c(=O)c23)C1 (stereo unspecified) | 3 | 1
CS(=O)(=O)CCN1CCCC1C(=O)Nc1cc(Cl)cc(Cl)c1 (stereo unspecified) | -1 | 5
Cc1occc1C(=O)N1CCC(n2nccc2NC(=O)c2cccc(F)c2)CC1 | -3 | -5
CC(C)(C)c1[nH][nH]c(=O)c1CCC#N | -2 | 18
CC(c1ccccn1)N(C)Cc1nc2ccccc2n1C(C)C (stereo unspecified) | 1 | 2
COC(=O)Nc1nc2cc3c(cc2s1)OCCO3 | -1 | -2

Structural class, those above containing a nitro group on carbon.
SMILES | NPYLR7 agonist | NPYLR7 agonist max-min
O=C(CN(c1cccc([N+](=O)[O-])c1)S(=O)(=O)c1ccccc1)NCCSc1ccccn1 | -17 | -9
O=C1Nc2ccc([N+](=O)[O-])cc2C1=Nn1cnnc1 | 3 | 0

Among those listed so far, two have a cyano group:
SMILES | NPYLR7 agonist | NPYLR7 agonist max-min
N#C/C(=C\Nc1cccc(Cl)c1)C(=O)NC(=O)c1ccccc1 | 10 | 13
CC(C)(C)c1[nH][nH]c(=O)c1CCC#N | -2 | 18

(continued)
SMILES | NPYLR7 agonist | NPYLR7 agonist max-min
O=C1C=CC(=O)N1c1ccc(F)cc1 | 3 | 2
CCn1ccnc1CN1CCCC(N(C)CCc2ccccc2)C1 (stereo unspecified) | 3 | -1
CC1CCC(N(C)C(=O)CN2CCCCC2C(=O)O)CC1 (stereo unspecified) | -8 | -8
Cc1ccccc1C(c1ncccc1C)N(C)C(=O)C1CCN(CCc2ccc(F)cc2)CC1 (stereo unspecified) | 1 | -2
CN1CCN(C)C2(CCN(C(=O)c3nn(C)c4ccccc34)CC2)C1 | -1 | -1
O=C(C1CC1)N1CCN(Cn2c(=O)oc3ccccc32)CC1 | 1 | 4
CN1CCc2ccccc2C2(CCC(=O)CC2)C1=O | 19 | 13
COc1cccc(CC(=O)N2CCC(c3cc(C(C)C)n[nH]3)CC2)c1 | 1 | -1
CCc1ccccc1NC(=O)c1sccc1S(=O)(=O)N1CCCCC1 | 7 | 9
N#CCCN(CCC#N)C(=O)COC(=O)C1CCN(c2cccc(OC(F)(F)F)c2)C1=O (stereo unspecified) | 0 | -4
Cc1ccccc1-n1c(Cc2ccccc2)nnc1SCc1ccc(C(=O)NC2CC2)cc1 | 3 | 7
CCOCCn1c(=O)c2c(nc3n2CCN3c2ccc(C)c(Cl)c2)n(C)c1=O | 12 | 8
Cc1c(CCC#N)c(=O)n2c([nH]c3ccccc32)c1C#N | 2 | 4
Cn1cc(C(=O)N2CCN(C3CCCC3O)CC2)c(C(F)(F)F)n1 (stereo unspecified) | 5 | 4
CCOC(=O)c1nc2cc(C)c(C)cc2nc1N1CCN(C(=O)[C@H](C)OC(C)=O)CC1 | 4 | 0
C#CCNC(=O)CN(C)Cc1ccc(F)cc1F | -4 | -4
CCOC(=O)C1CCN(C(c2ccc(C(F)(F)F)cc2)C2Sc3nc(CC)nn3C2=O)CC1 (stereo unspecified) | -3 | 4
CCOC(=O)c1cnc(-c2ccc(C(F)(F)F)cc2)nc1NCCc1cccc(OC)c1 | 3 | -5
CCc1c(O)n(-c2ccccc2C)c(=S)[nH]c1=O | 17 | 15
CC(C(=O)NC1CCCCC1)S(=O)Cc1cccc(F)c1 (stereo unspecified) | -3 | -6
NC(=O)C1CCN(C(c2ccccc2Cl)C2Sc3nc(-c4ccco4)nn3C2=O)CC1 (stereo unspecified) | 0 | -4
COc1ccc(CNC(=O)Nc2cc(NC(C)=O)ccc2F)cc1C | 7 | 3
COCCN=c1scc(-c2ccc(Br)cc2)n1N=Cc1ccc2c(c1)OCCO2 | -3 | -10
CCOc1ccc(C(=O)Nc2c(N)nc(SCC(=O)N3CCCCCC3)[nH]c2=O)cc1 | 1 | 1
CO[C@H]1CNCC1NC(=O)c1scnc1C (stereo partly specified) | 1 | 2

One compound at a time, as listed above. Order of screens: NPYLR7 agonist | NPYLR7 agonist max-min
`CC(C)(C)NC(=O)CC12CC3CC(C1)CC(CC(=O)NC(C)(C)C)(C3)C2` is listed as -4 | -7
`O=C(C1CC1)N1CCN(Cn2c(=O)oc3ccccc32)CC1` is listed as 1 | 4
`CN(C(=O)CCc1ccc(S(=O)(=O)N2CCCCC2)cc1)c1ccccc1` is listed as 0 | 5
`COc1ccc(CNC(=O)Nc2cc(NC(C)=O)ccc2F)cc1C` is listed as 7 | 3
`CCOc1ccc(-n2cc(-c3ccccc3)c3c(NCC(OC)OC)ncnc32)cc1` is listed as 3 | 3

Remaining list, next part:
SMILES | NPYLR7 agonist | NPYLR7 agonist max-min
CC(=NNC(=O)Cn1nc(C)cc1C)c1ccc(Br)s1 | 5 | 4
Cc1ccn2c(CCNC(=O)c3cc(C)oc3C)cnc2c1 | 7 | 9
CCCCNc1nc2c(c(=O)n(C)c(=O)n2C)n1CC(=O)C(C)(C)C | -2 | 0
O=C(c1ccc(N2CCCCC2=O)cc1)N1CCN(S(=O)(=O)c2cccc([N+](=O)[O-])c2)CC1 | -2 | -4
COc1nc(-c2ccccc2C)n(-c2ccc(NC(=O)C3C[C@H]3c3ccccc3)cc2)n1 (stereo partly specified) | -2 | -1
CCc1c(C)nc(-c2cccc(C(F)(F)F)c2)nc1N1CCN(S(=O)(=O)c2ccc(Br)cc2)CC1 | -6 | -5
CC1CCN(Cc2nc3c(c(=O)n(C)c(=O)n3C)n2CC(=O)C(C)(C)C)CC1 | -8 | -7
O=C(c1cc2c(s1)CCCCC2)N1CCS(=O)(=O)c2ccccc21 | 0 | -3
COc1ccc(C)c2c1N(C(=O)c1cccc(NC(C)=O)c1)CCC2 | 2&0 | 1&-3
O=C(CC[C@@H]1CNC(=O)[C@@H]2C[C@H](NC(=S)NCc3ccco3)CN12)Nc1ccccc1 | -9 | -15
Cc1cccc(C(=O)Nc2sc3c(c2C(=O)NCC2CCCO2)CCCC3)c1 (stereo unspecified) | 2 | 0
Cc1cccnc1C(NC(=O)Nc1ccc2ccn(C)c2c1)C(C)C (stereo unspecified) | 2 | 1
Cc1cc(-c2nnc(NC(=O)CCS(=O)(=O)c3ccc(Cl)cc3)o2)nn1C | -9 | -16
CC(=O)N[C@@H]1C[C@H](CC(C)C)O[C@H](c2cn[nH]c2C2CCCCC2)C1 | 14 | 11
COc1cc(OC)c(C(=O)NCc2ccc(-c3csc(C)n3)s2)cc1OC | 5 | 6
CSc1ccc(CC(=O)N2CCCC(CN3CCCC3)C2)cc1 (stereo unspecified) | 2 | 15
CCc1nc2c(OCc3ccccc3C(=O)OC)cccn2c1N(C)C(=O)c1cccs1 | -11 | -10
CC(C)COc1ccc(-c2nnc(-c3ccc(Br)cc3)o2)cc1 | 12 | 11
COCC1CCN(Cc2nc(-c3ccc(C(F)(F)F)cc3)no2)C1 (stereo unspecified) | -1 | -8
CCOc1cccc2sc(=NC(=O)CCS(=O)(=O)c3ccccc3)n(CC)c12 | -2 | 0
COc1cc(OC)c(-n2nnc(-c3nc(-c4ccccc4C)no3)c2C)cc1Cl | -4 | -8
Cc1ccc(C(=O)C2CCN(Cc3cc(C#N)ccc3F)CC2)c(C)c1 | -3 | -4
CN(CCN(C)S(=O)(=O)c1c(Cl)cccc1Cl)C1CCCCC1 | 9 | 7
O=C(Nc1cccnc1N1CCCC1)C1CCCN(C(=O)C2CC2)C1 (stereo unspecified) | -29 | -29
O=C(Nc1ccc2c(c1)OCO2)c1ccc(OC(F)(F)F)cc1 | 15 | 8
Cc1nccc(-c2cccc(NC(=O)c3ccc(-n4nc(-c5cccc(Cl)c5)cc4N)cc3)c2)n1 | 3 | -2
O=C(CN1CN(c2ccccc2)C2(CCN(C(=O)c3ccc(C(F)(F)F)cc3)CC2)C1=O)N1CCOCC1 | -6 | 7
C/C(=C\c1ccccc1)CN1CC(N2CCCCC2C)C1 (stereo unspecified) | 5 | 3
CCCCCCC(=O)Nc1nnc(C(C)(C)C)s1 | -3 | -4
Cc1nnc(SCC(=O)NC(=O)NC(C)C)n1C1CCCCC1 | -1 | 6

Look-ups from the list:
Cc1nnc(SCC(=O)NC(=O)NC(C)C)n1C1CCCCC1 – NPYLR7 agonist max-min = 6
O=C(CN1CN(c2ccccc2)C2(CCN(C(=O)c3ccc(C(F)(F)F)cc3)CC2)C1=O)N1CCOCC1 – NPYLR7 agonist max-min = 7
CC(=NNC(=O)Cn1nc(C)cc1C)c1ccc(Br)s1 – NPYLR7 agonist max-min = 4
CCc1c(C)nc(-c2cccc(C(F)(F)F)c2)nc1N1CCN(S(=O)(=O)c2ccc(Br)cc2)CC1 – NPYLR7 agonist max-min = -5
CC(C)COc1ccc(-c2nnc(-c3ccc(Br)cc3)o2)cc1 – NPYLR7 agonist = 12

This is a subset; rates above refer to the full screens.
